Six1-Eya2 blk: qHTS Assay for Inhibitors of the Six1/Eya2 Interaction | actives 0.56% (n = 360,000) | AlphaScreen GST-Six1/His-Eya2 binding, biochemical; hits give low values; control for the full effect not named in the record | activity change, % (test concentration not listed) | Homeobox protein SIX1 (Homo sapiens) + Protein phosphatase EYA2 (Homo sapiens), …; in the data active = activity change below about -65%; inconclusive = about -30% to -65%; inactive = above about -30%; further: on the % scale 0 is the no-effect control and ±100 the full control effect; compound concentration not given in the record
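AlphaScreen with GST-Six1 and His-Eya2 (5X mix: 250 nM and 500 nM), glutathione donor and nickel acceptor beads; buffer 50 mM Tris pH 8.0, 300 mM NaCl, 1 mM TCEP; 1 h at 37 C in the dark.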
D2 PAM: Beta-Arrestin HTS for Positive Allosteric Modulators of the Human D2 Dopamine Receptor: Potentiators | D(2) dopamine receptor (Homo sapiens), P14416 | DiscoveRx D2 beta-arrestin cells, luminescence, 90 min; 100% = 57 uM dopamine signal | potentiation, % (no concentration beside the values) | actives 0.23% (n = 360,000) | AID 624464, 2012; active = potentiation of 50% or more; inconclusive = 30% to 50%; inactive = 30% or less;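 further: compound concentration not given in the record; tested on top of an EC20 dose of dopamine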
Target sequence (P14416 whole entry, looked up): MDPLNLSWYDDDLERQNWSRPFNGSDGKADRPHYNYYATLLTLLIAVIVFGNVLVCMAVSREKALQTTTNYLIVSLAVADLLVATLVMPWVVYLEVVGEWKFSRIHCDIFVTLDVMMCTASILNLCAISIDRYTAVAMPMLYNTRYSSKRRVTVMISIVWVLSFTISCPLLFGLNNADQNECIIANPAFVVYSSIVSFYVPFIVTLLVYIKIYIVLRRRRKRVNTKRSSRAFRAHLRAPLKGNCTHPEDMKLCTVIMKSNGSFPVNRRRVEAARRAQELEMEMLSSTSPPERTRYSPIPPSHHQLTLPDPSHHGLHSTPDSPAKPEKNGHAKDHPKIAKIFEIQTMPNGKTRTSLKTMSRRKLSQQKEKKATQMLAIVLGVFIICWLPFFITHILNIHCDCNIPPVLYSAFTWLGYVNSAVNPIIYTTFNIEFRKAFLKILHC
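PathHunter beta-arrestin assay in DiscoveRx D2 cells. Compounds were added with an EC20 of dopamine (50 nM final) for 90 min at 37 deg C. Luminescence was read 1 h after detection reagent, with 57 uM dopamine as the EC100 control.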
TRPV1 potentiator: HTS Assay for Compounds that Act as Potentiators of the Vanilloid Receptor 1; potentiation, % at 8.33 µM; TRPV1-expressing cells, Fluo-8 calcium influx, capsaicin EC20 potentiation; host cell line not named in the record; control for the full effect not named in the record; Transient receptor potential cation channel subfamily V member 1 (Homo sapiens), Q8NER1; actives 0.02% (n = 320,000); active means potentiation above 80%; inconclusive means 30% to 80%; inactive means below 30%; further: 0% is about no effect
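TRPV1-expressing cells were cultured overnight at 35.5C and loaded with Fluo-8 calcium dye for 40 to 90 min at room temperature. After a 10 s baseline, compound was added and calcium influx was read kinetically for 3 min (ex 480/em 520 nm).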
Sfp PPTase inh: qHTS Assay for Inhibitors of Bacillus subtilis Sfp phosphopantetheinyl transferase (PPTase). 4'-phosphopantetheinyl transferase ffp (Bacillus subtilis), Q9F4F7. Biochemical Sfp PPTase activity, qHTS. Potency, µM, for inactives: max response, negative = inhibition, actives largely listed as inhibitors. actives 3.5% (n = 310,000); active means well fitted inhibition curve with a large enough effect; inconclusive means small, poorly fitted or top-dose-only effect, or another doubt; inactive means no such curve, though single readings can be large or run the other way;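 further: the enzyme is Sfp with the accession as filed and its product quenches rhodamine fluorescence; potency means the concentration at half of the fitted maximal effect; 0% = enzyme reaction without inhibitor and -100% = no enzyme wells; top concentration of the series not given in the record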
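Buffer: 50 mM Hepes-Na pH 7.6, 10 mM MgCl2, 0.01% Nonidet P-40, 0.01% BSA. Enzyme 15 nM, pre-exposed to compound 15 min; substrates then added and fluorescence change tracked over 30 min.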
CtBP-E1A blk: qHTS Assay for Inhibitors of the CtBP/E1A Interaction | AlphaScreen GST-E1A/His-CtBP binding, 1536-well; hits give low values; control for the full effect not named in the record | actives 0.49% (n = 340,000) | activity change, % (test concentration not listed) | CtBP / adenovirus E1A interaction (AlphaScreen) | AID 651724, 2012; in the data active means activity change below about -65%; inconclusive means about -30% to -65%; inactive means above about -30%; further: on the % scale 0 is the no-effect control and ±100 the full control effect; compound concentration not given in the record
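Homogeneous bead-based format: GST-tagged E1A captured on glutathione donor beads, His-tagged CtBP on nickel acceptor beads; compounds precede bead addition by 2 h at 37 °C.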
PINK1 modulator: A Quantitative High throughput Screen to Identify Chemical Modulators of PINK1 Expression. Potency, µM (doses to about 76.6 µM), for inactives: at the highest dose activation (PINK1 increase), hits mostly activators. PINK1 immunofluorescence, high-content cytometry, 24 h. actives 0.2% (n = 410,000); active = well fitted activation curve with a large enough effect; inconclusive = small, poorly fitted or top-dose-only effect; inactive = flat fitted curve, though single readings scatter; cell line not stated here;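 further: potency means the concentration at half of the fitted maximal effect; % of control where 0% means no effect; nearly all actives have a fitted effect of over 65% in size; a mitochondrial uncoupler was the plate control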
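Cells are seeded, rested 12 hours, then given compound at five concentrations or DMSO for 24 hours. After fixation, blocking and antibody staining, PINK1 amount and mitochondrial localization are scored; CCCP serves as control.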
D2 agonist: Beta-Arrestin HTS for Positive Allosteric Modulators of the Human D2 Dopamine Receptor: Agonists; D(2) dopamine receptor (Homo sapiens), P14416; actives 0.084% (n = 360,000); AID 624465, 2012; activation, % (concentration not given with the values); DiscoveRx PathHunter D2 beta-arrestin, luminescence, 90 min; 100% = 57 uM dopamine signal; in the data active = activation above about 40%; inconclusive = about 15% to 40%; inactive = below about 15%; further: compound concentration not given in the record; the text of the record calls up to 30% inactive
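DiscoveRx PathHunter D2 beta-arrestin cells (2,100/well) attached overnight, then compound-stimulated 90 min at 37 C in HBSS/10 mM HEPES/0.1% Tween-20 buffer; beta-galactosidase complementation read by luminescence after 1 h at ambient temperature. Dopamine 57 uM final (EC100) as control.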
An asterisk follows results filed as active; ? = inconclusive; nt = no result given; [ ] = remark or other dose. Not a hit list; overall some 3.7% were active at least once.

smiles | Six1-Eya2 blk | D2 PAM | TRPV1 potentiator | Sfp PPTase inh | CtBP-E1A blk | PINK1 modulator | D2 agonist
Cn1c(SCC(=O)c2ccc(F)cc2)nnc1-c1ccccc1N | -2 | -12 | 10 | -6% | -1 | -0.4% | -1.7
O=C(NC1CCCC1)c1ccc2c(c1)N(Cc1ccccc1)CCS2 | 8 | 3 | -8 | -3% | 0 | 1.8% | 1.7
CCOC(=O)c1sc(NC(=O)CSc2nnnn2-c2ccc(C)c(C)c2)nc1C | 7 | -4 | 9 | -9% | -8 | 6.7% | -1.7
Cc1cc(C)n(CC(=O)N2CCCC(N3CCN(c4cccc(C(F)(F)F)c4)CC3)C2)n1 (centres undefined) | 5 | -23 | 1 | 21% | 3 | 2.8% | 1.7
CC(CNC(=O)C1CCCN(S(=O)(=O)N2CCOCC2)C1)c1ccccc1 (centres undefined) | 14 | -26 | ? | 3% | 8 | -1.3% | -2.7
COc1ccccc1NS(=O)(=O)c1cc2c(cc1C)NC(=O)CO2 | 4 | 2 | -1 | -2% | -2 | 0.7% | -2.6
Cc1cccc(OCc2nnc(SCC(=O)N(C(C)C)C(C)C)n2Cc2ccco2)c1C | -7 | -10 | -14 | ? | -6 | 2.0%[38.3 µM] | -2.3
CC1(C(=O)NS(=O)(=O)c2ccc(Br)cc2)CCN1C(=O)Cc1ccsc1 (centres undefined) | 0 | -5 | nt | nt | 4 | 1.1% | 0.9
Cc1cc(C=O)c(C)n1-c1ccc2c(c1)OCO2 | -4 | 9 | ? | 4% | nt | 1.4% | -6.4
O=C(NCc1ccccc1)c1ccc([N+](=O)[O-])cc1 | 0 | -5 | nt | nt | -3 | 2.2% | 5.6
CCCOc1cc(C)nc(-c2ccccc2O)n1 | 32 | 11 | -7 | -4% | 37 | 0.3% | -1.4
COc1ccc(S(=O)(=O)Nc2cccc(S(=O)(=O)N3CCCCCC3)c2)cc1 | 24 | -14 | -7 | -6% | 43 | -1.6% | -2.0
O=C(NNc1ccc([N+](=O)[O-])cc1)C1CC1c1ccccc1 (centres undefined) | 0 | 17 | -5 | -6% | 7 | -1.1% | 1.2
Cc1nc2cc(NC(=O)CCS(=O)(=O)c3ccccc3)ccc2s1 | -1 | -5 | -10 | -7% | 0 | 0.3% | -2.2
CCc1ccc(N2CC(C(=O)NC3=NCCS3)CC2=O)cc1 (centres undefined) | 0 | -11 | -14 | 18% | 0 | 1.1% | -1.2
CC(=O)Nc1nc2cccc([N+](=O)[O-])c2s1 | -1 | -19 | 4 | -17% | 5 | 0.4% | 6.7
CCCC(=O)N1c2ccccc2C(=C2SC(C(=O)OC)=C(C(=O)OC)S2)C(=S)C1(C)C | ? | 0 | 5 | -4% | -16 | 0.5% | -3.0
CC(C)OCCCNC(=S)N1CCC(C(=O)c2ccc(Cl)cc2)CC1 | 0 | -2 | 16 | 24% | 0 | 0.4% | 0.6
O=C(O)c1cc(-c2cccnc2)nn1-c1ccccn1 | 0 | -23 | 0 | 17% | 0 | -1.6% | -3.3
CN(CCCNC(=O)CSc1cc(=O)n(C)c2ccc(Cl)cc12)Cc1ccccc1 | -5 | -14 | 5 | -10% | -10 | 12% | 1.1
COC(=O)[C@]1(C)N[C@H](CN(C)C(C)=O)[C@@H]2C(=O)N(C)C(=O)[C@@H]21 | 3 | -2 | nt | nt | 10 | -1.6% | -2.0
COC(=O)c1ccc2c(c1)N(Cc1ccccc1F)C(=O)c1ccccc1S2=O (centres undefined) | 8 | -1 | 21 | -17% | -12 | 0.9% | 0.2
Cc1cc(Oc2ccccc2)nc(SCC(N)=O)n1 | 1 | -8 | 9 | 17% | 0 | -1.0% | -1.3
Cc1cc(NC(=O)Nc2cccc([N+](=O)[O-])c2)no1 | -1 | -26 | -2 | 5% | 7 | 3.5% | -19
Cc1cccc(NC(=O)c2ccc(Cl)nc2)n1 | 6 | -4 | 1 | 2% | 16 | 0.0% | 1.5
CCOC(=O)N1CC=C2C(C#N)=C(N)C(C#N)(C#N)[C@H](c3ccc(OCC)c(OCC)c3)[C@H]2C1 | -2 | -21 | -2 | 12% | 1 | 12%[38.3 µM] | -1.2
Cc1cc(C(O)c2ncc(-c3ccccc3Cl)[nH]2)ccc1F (centres undefined) | -13 | -8 | nt | nt | -1 | 3.4% | -3.5
COc1cccc(OCCNC(=O)c2cc([N+](=O)[O-])cc([N+](=O)[O-])c2)c1 | -3 | 19 | 3 | 9% | -7 | 0.4% | 12
CC(C)(C)OC(=O)[C@H](Cc1ccccc1)NC(=O)c1nc[nH]c1C(=O)NC1CCN(C(=O)OC(C)(C)C)CC1 | -12 | 0 | 21 | 24% | nt | -1.3% | 0.8
CC(=O)c1cccc(S(=O)(=O)N(Cc2cc3cc4c(cc3[nH]c2=O)OCCO4)CC2CCCO2)c1 (centres undefined) | 6 | -5 | 16 | 5% | 1 | 0.0%[38.3 µM] | 0.3
O=c1sc2ccccc2c(N2CCOCC2)c1[N+](=O)[O-] | -3 | -4 | ? | 4% | 8 | 0.9% | 4.0
O=C(CNCc1ccccc1Cl)Nc1cc(S(=O)(=O)N2CCOCC2)ccc1Cl | 1 | 3 | nt | nt | -6 | 0.3% | 12
CC(=O)c1cccc(-c2cnc3c(NC=O)cc(-c4ccccc4Oc4ccccc4)cn23)c1 | -7 | -9 | nt | nt | -10 | 0.1% | -3.0
CN(c1cccc(NS(=O)(=O)c2cccc([N+](=O)[O-])c2)c1)S(C)(=O)=O | 11 | -7 | -1 | 5% | -5 | 1.2% | 0.5
COc1cc(/C=N/Nc2ccccc2[N+](=O)[O-])ccc1OC(=O)c1ccccc1F | 2 | -1 | -3 | ? | 2 | 0.8% | -0.9
Clc1nnc2c3ccccc3ccn12 | -9 | -5 | nt | nt | -7 | 3.3% | 1.6
CCS(=O)(=O)N1CCC(C(=O)NCc2cccnc2)CC1 | 9 | 3 | ? | 32%[activator] | 6 | 5.9%[38.3 µM] | -0.8
CC1(C)CC(=O)c2c(Cc3ccccc3)noc2C1 | 0 | -18 | -14 | -6% | -4 | 4.7% | -2.5
CCC(C)NC(=O)c1cc(-c2ccccc2O)on1 (centres undefined) | 0 | -4 | nt | -4% | 3 | 0.8% | -5.9
Cc1nc(Cl)sc1C(=O)O | 0 | -13 | ? | 3% | 4 | -2.6% | 0.1
Cc1ccc(NC(=O)CSCc2cc(=O)n3ccsc3n2)cc1 | 5 | -7 | -5 | 6% | -1 | -1.5% | 2.9
CCN(CC)Cc1c(O)ccc2c(=O)c(-c3ccccc3)coc12 | -5 | -5 | 3 | 1% | 11 | 1.2% | -5.8
CCn1c(SCc2cccc(C(F)(F)F)c2)nnc1-c1ccco1 | 0 | -11 | -31 | -1% | -4 | -2.1%[38.3 µM] | -2.6
O=C(c1cc(COc2c(F)cccc2F)on1)N1CCC(c2ccccc2F)C1 (centres undefined) | -5 | -3 | -9 | 3% | 17 | -1.8% | -4.8
O=C(COC(=O)C1(c2ccc(Cl)cc2)CCCC1)Nc1ncc(C(F)(F)F)cc1Cl | -6 | -4 | -17 | 9% | nt | 18% | 0.7
Cc1ccc(-n2nc(C)c(/C=N/NC(=O)c3cccnc3)c2Cl)cc1 | -2 | -6 | 9 | 4% | nt | -1.1% | 1.0
O=C(Nc1nccs1)c1cc(S(=O)(=O)N2CCCCC2)ccc1Cl | -8 | -6 | -2 | -4% | 0 | -0.9% | -0.1
COc1ccccc1C(=O)COC(=O)c1ccc(N(C)C)cc1 | -4 | 13 | 12 | 4% | -2 | -0.9% | -19
O=C(O)C/C(=C\c1cc(Br)cs1)c1nc2ccccc2o1 | -7 | 2 | -7 | 2% | 0 | 0.9% | 5.9
Cc1noc(C)c1CSc1ncnc2sc3c(c12)CCCCC3 | -2 | -12 | -2 | -27% | 3 | 8.8% | -0.6
CC(C)(C)N1NC(=O)Nc2ccccc2C1=O | 7 | -6 | -4 | 13% | 10 | 0.2% | -3.2
CCOc1ccc(N(CC)S(=O)(=O)c2cccc3nsnc23)cc1 | -1 | -7 | ? | -1% | -8 | 10% | -4.9
CCCCn1c(N)c(N(CC)C(=O)CSc2nnc(-c3ccco3)n2CC)c(=O)[nH]c1=O | 2 | -4 | -21 | nt | 0 | 0.4% | -3.9
CCn1c(=S)[nH]c2nc3c(cc2c1=O)CCCC3 | -1 | 1 | 29 | 21% | -2 | 1.9% | -0.9
O=C(Cc1cccc(NC(=O)C2CCCN(C(=O)CCc3ccccc3)C2)c1)Nc1cccc(C(=O)N2CCOCC2)c1 (centres undefined) | 5 | -2 | nt | nt | 5 | -0.8% | -0.1
COc1ccc(-c2nc(SCC(=O)NC3CCCCC3)n[nH]2)cc1 | -1 | 7 | 15 | 11% | -7 | -0.1% | -8.2
CCCS(=O)(=O)N1CCCC(C(=O)NCc2ccco2)C1 (centres undefined) | 0 | 14 | 7 | -3% | 12 | -0.1% | -2.1

Given with two lines to a compound: entries from further up
Below each compound – Six1-Eya2 blk	D2 PAM	TRPV1 potentiator	Sfp PPTase inh	CtBP-E1A blk	PINK1 modulator	D2 agonist
Cc1cc(C)n(CC(=O)N2CCCC(N3CCN(c4cccc(C(F)(F)F)c4)CC3)C2)n1 (centres undefined)
→ 5	-23	1	21%	3	2.8%	1.7
Cc1cc(Oc2ccccc2)nc(SCC(N)=O)n1
→ 1	-8	9	17%	0	-1.0%	-1.3
COc1cccc(OCCNC(=O)c2cc([N+](=O)[O-])cc([N+](=O)[O-])c2)c1
→ -3	19	3	9%	-7	0.4%	12
CC(CNC(=O)C1CCCN(S(=O)(=O)N2CCOCC2)C1)c1ccccc1 (centres undefined)
→ 14	-26	?	3%	8	-1.3%	-2.7
O=c1sc2ccccc2c(N2CCOCC2)c1[N+](=O)[O-]
→ -3	-4	?	4%	8	0.9%	4.0
Cc1cccc(NC(=O)c2ccc(Cl)nc2)n1
→ 6	-4	1	2%	16	0.0%	1.5

Screening results (PubChem BioAssay)
